# LANA-H2B inh – blockers of LANA interaction with H2A/H2B – biochemical, FP readout, HTS, primary screen. Protein LANA1 (Human herpesvirus 8 type P (isolate GK18)), Q9QR71. AID 2629, 2010. 320,000 compounds, 0.6% hits. inhibition, % (test concentration not listed). cell-free LANA-H2A/H2B peptide, fluorescence polarization; in the data active = inhibition mostly above about 10%, no sharp cut-off; inactive = mostly below about 6.7%;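 also: stock transfer was 7.5 nL into about 10 µL; 0% = median of vehicle wells and 100% = median of positive control wells; one replicate is shown; the record names a cut of 25% in any replicate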
# RanGTP-Impb inh – inhibitors of RanGTP-importin-beta interaction, primary screen, biochemical, FRET, CFP-Ran, YFP-importin-beta, homogeneous. Ran GTPase (GTP-bound) - importin-beta complex. cell-free CFP-Ran/YFP-importin-beta FRET ratio. inhibition, % (test concentration not listed). 300,000 compounds, 1.1% hits. AID 2216, 2009;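 active = most replicates above 15%; inconclusive = exactly half above 15%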;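 also: 0% = DMSO wells and 100% = Ran loaded with GDP instead of GTP; wells of about 40 µL received 100 nL stock; the first replicate is given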
# Vif A3G – inhibitors of Vif binding to APOBEC3G peptide, primary screen, biochemical, TR-FRET, GST-Vif 1-94, biotin-A3G peptide, dose response retest (AID 1117319) | Virion infectivity factor (Human immunodeficiency virus type 1 group M subtype B (isolate … | TR-FRET GST-Vif / biotin-A3G peptide binding; higher % means a stronger effect; test concentration not given here; strong numbers were not always called active | inhibition, %, or IC50 in µM where a hit was titrated | 260,000 compounds, 0.57% hits;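 active = above the screen mean plus three standard deviations and confirmed in dose response; inconclusive = results disagree or hit not tested in dose response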;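 also: Vif residues 1-94 fused to GST binding biotinylated APOBEC3G peptide 110-148; 0% = full assay without inhibitor and 100% = GST in place of GST-Vif; retest series ran down from 100 µM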
# T cruzi repl – inhibitors of intracellular T. cruzi growth, primary screen, luminescence, NIH3T3 host cells | T. cruzi beta-gal in NIH3T3, 90 h | inhibition, % (concentration not given with the values) | 300,000 compounds, 1.4% hits;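 active = mean inhibition across valid replicates above about 55%, limit read from the data; inconclusive = mean below that limit but half or more replicates reach it; inactive = mean below it, under half of replicates reach it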;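 also: signal also drops with host cell toxicity which is not excluded here; 0% = plate median of DMSO wells and 100% = zero luminescence signal; higher percent means less beta-gal luminescence so fewer parasites; stock transfer was 50 nL into about 50 µL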
# AF4-AF9 inh – inhibitors of AF4 peptide binding to AF9, primary screen, biochemical, AlphaScreen, biotin-AF4 peptide, FLAG-AF9, single point. Protein AF-9 (Homo sapiens), P42568. inhibition, % at 10 µM. 350,000 compounds, 0.47% hits;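 active = every replicate reaching a set inhibition limit, whatever the replicate mean, cut at about 25% in these data; inconclusive = mean inhibition reaches that limit but some replicates miss it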;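 also: 0% = plate neutral control median and 100% = total signal loss; the record names both 10 and 1 µM as test concentration; the first replicate is given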
# Target sequence (P42568 whole entry, looked up): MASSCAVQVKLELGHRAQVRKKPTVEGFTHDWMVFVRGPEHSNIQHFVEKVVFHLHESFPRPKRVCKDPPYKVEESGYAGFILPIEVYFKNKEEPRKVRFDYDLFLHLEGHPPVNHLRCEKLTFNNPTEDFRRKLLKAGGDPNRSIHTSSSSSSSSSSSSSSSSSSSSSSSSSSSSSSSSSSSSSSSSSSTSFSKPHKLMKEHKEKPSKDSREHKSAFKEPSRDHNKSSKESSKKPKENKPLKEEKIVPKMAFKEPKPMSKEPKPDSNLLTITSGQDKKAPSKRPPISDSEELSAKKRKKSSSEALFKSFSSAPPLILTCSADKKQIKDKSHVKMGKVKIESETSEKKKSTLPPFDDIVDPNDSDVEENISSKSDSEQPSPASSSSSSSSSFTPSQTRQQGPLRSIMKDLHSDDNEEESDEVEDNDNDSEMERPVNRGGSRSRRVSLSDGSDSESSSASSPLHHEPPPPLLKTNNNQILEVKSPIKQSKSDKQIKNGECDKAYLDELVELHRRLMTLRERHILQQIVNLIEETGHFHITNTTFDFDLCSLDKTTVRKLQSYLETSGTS
# Calb FLC – C. albicans growth inhibition with fluconazole, primary screen, CaCi-2 strain, Alamar Blue fluorescence; AID 1979, 2009; growth inhibition, % (no concentration beside the values); C. albicans CaCi-2 (fluconazole-resistant clinical isolate) + fluconazole, 48 h; 300,000 compounds, 0.57% hits;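 active = most replicates above 75%; inconclusive = exactly half above 75%; inactive = most below 75%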;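 also: all wells also contain fluconazole at 8 µg/ml as a sub-toxic cotreatment; 0% = median of DMSO wells and 100% = median of geldanamycin control wells; wells of about 8 µL received 7.5 nL stock; the first replicate is given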
# Beta cell apopt – inhibitors of cytokine-induced beta cell apoptosis, primary screen, luminescence; INS-1E cytokine-induced death, ATP luminescence, 48 h; percent of positive-control rescue, neutral wells zero; protection from apoptosis, % (no concentration beside the values); 300,000 compounds, 0.8% hits;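 active = all replicates at 75% or more, or half of them and the mean; inconclusive = half reach 75% but not the mean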;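 also: 0% = cytokine-treated negative control wells and 100% = positive control rescue; higher means more ATP so stronger rescue from cytokine killing; wells of about 40 µL received 100 nL stock; the first replicate is given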
# A1 inh – caspase 3/7 activation in MEF A1-2A-BIM cells, primary screen, A1 inhibitor project, cell-based, luminescence, HTS | Caspase-Glo 3/7 luminescence, 3 h; percent of clofoctol response, vehicle zero | caspase activation, % (concentration not given with the values) | 330,000 compounds, 0.066% hits | AID 2462, 2010;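 active = over half of replicate activation scores above 10%, or exactly half above 10 with the replicate mean above 10; inconclusive = replicate mean below 10 yet half the replicates above 10; inactive = over half of replicates below 10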;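 also: wells of about 30 µL received 50 nL stock; many hits fall short of the cut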
# * = called active by the depositor; u = inconclusive; x = not tested or not shown.
SMILES,LANA-H2B inh,RanGTP-Impb inh,Vif A3G,T cruzi repl,AF4-AF9 inh,Calb FLC,Beta cell apopt,A1 inh
COc1ccc(N2CCN(C(CNC(=O)C(=O)NCCCn3ccnc3)c3ccco3)CC2)cc1 (stereo not given),-4.3,-1.0,x,-2,3.7,0,-6,0.5
N=c1c(C(=O)NCc2ccco2)cc2c(=O)n3ccccc3nc2n1Cc1ccc(Cl)cc1,1.1,126*,11%,43,x,15,10,0.5
CCN(CC)CCNC(=O)Cn1cnc2sc(C)c(S(=O)(=O)N3CCN(c4ncccn4)CC3)c2c1=O,2.7,-2.9,9%,-1,0.3,-5,-6,0.0
CCOC(=O)CN1C(=O)C2(OCCCO2)c2ccccc21,2.4,-1.5,5%,-9,x,0,-6,0.0
CN(C)S(=O)(=O)c1cccc(-c2nnc(SCc3cc(Cl)cc4c3OCOC4)n2N)c1,-2.5,-7.9,1%,-14,x,1,-5,1.7
CCCn1nnc(NC(=S)NC(=O)Cc2ccccc2)n1,-2.3,0.2,2%,-11,-3.6,2,-4,0.1
CN1C(=O)/C(=C/c2cc(C(C)(C)C)c(O)c(C(C)(C)C)c2)NC1=S,0.8,-2.3,4%,9,-1.6,9,3,0.0
Cc1ccc(N(CCCCN2C(=O)c3ccccc3C2=O)C(=O)c2ccc(Cl)s2)cc1,6.2,-2.2,u,10,x,4,-10,0.3
CCC(CC)C(=O)c1c[nH]c(C(=O)NN)c1,1.2,u,5%,-4,-3.0,u,-1,0.0
CCSC(C)CC1C/C(=N/O)c2c(C)noc2C1 (stereo not given),6.2,-4.1,4%,2,x,3,-2,0.3
Cn1nc(-c2ccccc2)c2nc3ccccc3nc21,95*,-17,-3%,13,x,-6,-3,-1.0
CCCCCCNS(=O)(=O)c1ccc(NC(=O)C2CCCO2)cc1 (stereo not given),-1.0,-0.6,-4%,-9,-4.5,1,5,0.2
CN1CCN(CCNC(=O)Nc2ccccc2C(F)(F)F)CC1,17*,-3.5,-3%,4,x,3,-9,-0.1
Cc1cc(C)c2c(N)c(S(=O)(=O)Cc3ccccc3)sc2n1,6.6,2.4,3%,10,x,u,-2,1.4
CCOC(=O)c1cnn(-c2nc(SC)nc3sc4c(c23)CCCC4)c1N,3.5,u,23%,38,x,25,4,0.0
COc1cccc(S(=O)(=O)NCc2ccc(C(=O)Nc3ccc(Cl)cc3)cc2)c1,-2.1,-0.7,x,32,-2.0,-9,3,0.2
CC1Cc2ccccc2N1C1=CC(=O)CC(C)(C)C1 (stereo not given),-0.2,-5.1,x,-6,-2.4,20,8,-0.5
Cc1ccc(C)c(NS(=O)(=O)c2ccc(-c3coc(C)n3)cc2)c1,-1.4,7.1,x,27,2.5,-22,2,-0.1
O=C(O)C1CCCCC1C(=O)Nc1ccc(S(=O)(=O)N2CCCCCC2)cc1 (stereo not given),-1.9,2.1,x,-3,-0.7,19,-9,-0.2
O=C(NCc1ccccc1Cl)C1CCC(=O)N(CC2CCCCC2)C1 (stereo not given),-2.4,3.2,x,1,-0.1,-8,-5,0.1
CC1CCCC(NC(=O)COC(=O)/C=C/c2ccc3c(c2)OCO3)C1C (stereo not given),5.3,-0.4,x,-20,-1.3,-36,-5,0.7
CCn1cnc2sc(C(=O)Oc3ccc(Br)cc3)c(C)c2c1=O,0.8,2.7,-1%,5,-4.9,-3,-6,-1.3
CCSc1n[nH]c(=S)s1,0.1,-13,0%,35,-4.6,-5,x,1.3
O=C(N/N=C1\CCCc2ccccc21)c1ccccc1[N+](=O)[O-],3.9,-2.2,7%,0,x,-4,-4,0.1
CCC1CCC/C1=N\NC(=O)c1ccccc1Cl (stereo not given),-1.9,-20,x,12,1.3,-10,1,-1.0

# Limited to AF4-AF9 inh, Beta cell apopt and Calb FLC, for 2 of the compounds above:
molecule	AF4-AF9 inh	Beta cell apopt	Calb FLC
O=C(O)C1CCCCC1C(=O)Nc1ccc(S(=O)(=O)N2CCCCCC2)cc1 (stereo not given)	-0.7	-9	19
O=C(NCc1ccccc1Cl)C1CCC(=O)N(CC2CCCCC2)C1 (stereo not given)	-0.1	-5	-8

# (list continues)
SMILES,LANA-H2B inh,RanGTP-Impb inh,Vif A3G,T cruzi repl,AF4-AF9 inh,Calb FLC,Beta cell apopt,A1 inh
O=C(Oc1c(CN2CCOCC2)cc(Cl)c2cccnc12)c1ccccc1Br,4.0,14,7%,45,x,87*,97*,0.1
CC1=CC(C)(C)Nc2ccc(OC(=O)C(Cc3ccccc3)N3C(=O)c4ccccc4C3=O)cc21 (stereo not given),-2.8,-0.2,18%,0,x,-5,-13,-1.8
NC(=O)CN1C(=O)C2C3c4ccccc4C(c4ccccc43)C2C1=O (stereo not given),5.8,2.6,-8%,-10,x,-13,-3,2.7
O=C(NCc1ccco1)/C(=C/c1cccc(C(F)(F)F)c1)c1nc2ccccc2[nH]1,2.2,2.2,23%,15,x,-3,x,-0.4
N#Cc1cccc(N=Cc2c(O)ccc3ccccc23)c1,0.3,1.3,u,9,x,-2,-18,-0.4
O=C1CC(c2ccccc2)CC(O)=C1C=Nc1ccccc1O (stereo not given),5.1,-2.0,8%,-64,0.4,u,-7,-0.2
Cc1ccc(C(=O)OCC(=O)c2ccccc2)cc1,3.4,-0.6,5%,-7,-1.5,-1,-1,0.5
CCn1c(SCC(=O)c2ccc(C)cc2)nnc1-c1ccoc1C,-1.1,0.1,18%,-12,x,-1,-3,0.2
O=C(CSc1nc2[nH]ncc2c(=O)[nH]1)NCCc1ccccc1,19,-1.3,1%,-8,-1.4,-18,-9,0.7
CC1CCCCN1Cc1c(O)ccc2c(=O)c(-c3ccc(Cl)cc3)coc12 (stereo not given),-2.0,-2.3,0%,18,2.3,-7,-4,-2.1
COc1ccc(-c2oc3ncnc(NCCCO)c3c2-c2ccc(OC)cc2)cc1,2.1,7.1,-9%,37,2.2,42,30,1.1
CC(C)=NNC1=NC(C)(C)Cc2ccccc21,-6.2,0.8,4%,9,1.3,7,2,0.5
CCCn1c(CCC(=O)O)ccc1-c1ccc(OC)cc1,3.1,1.0,4%,-5,x,-6,0,0.3
CC(C)C(C(=O)Nc1ccc(S(N)(=O)=O)cc1)N1C(=O)c2ccccc2C1=O (stereo not given),6.0,x,0%,-11,-0.9,-22,-4,-0.8
O=C(N/N=C/c1ccc(O)c(O)c1)C1c2ccccc2Oc2ccccc21,0.5,0.3,u,3,x,-3,-4,1.8
COc1ccc(N2CCN(S(=O)(=O)CCNC(=O)c3ccc4c(c3)OCO4)CC2)cc1,2.1,-1.8,-6%,0,-0.5,-4,x,0.6
CC(Oc1ccc(Br)cc1)C(=O)NC1CCCCCC1 (stereo not given),-3.0,x,x,x,-0.6,x,2,1.0
Cc1cccc(C(=O)NC(=S)NNC(=O)Cc2ccccc2)c1,0.4,1.8,-4%,-22,0.4,95*,10,-0.1
Cc1ccc(C(=O)Nc2nnc(COc3ccccc3)s2)cc1,-0.9,-1.6,x,4,-2.0,-4,-3,1.0
CCOC(=O)C1=C(C)Nc2ccccc2S1,-1.3,-0.6,-2%,-12,2.0,4,-1,0.1
O=C(Cn1c(=O)oc2ccccc21)NCCc1ccccc1,-1.2,-0.9,0%,-7,0.6,27,-4,0.5
COc1cccc(CN2CCCC(C(=O)N3CCCCC3)C2)c1OC (stereo not given),3.1,2.0,0%,20,x,-12,-1,0.9
COC(=O)c1ccc(CSc2cc(C)c3cc(C)cc(C)c3n2)o1,2.1,1.4,-7%,-7,-0.4,-13,-5,-0.5
COc1cc(/C=C2\SC(c3ccc(C)cc3)=NC2=O)cc(OC)c1O,2.9,-1.7,16%,5,20,51,-9,-0.1
COC(=O)c1cc(S(=O)(=O)Nc2ccc(C)cn2)c[nH]1,-1.1,4.2,x,-10,1.5,5,1,-0.9

# (further entries)
SMILES,LANA-H2B inh,RanGTP-Impb inh,Vif A3G,T cruzi repl,AF4-AF9 inh,Calb FLC,Beta cell apopt,A1 inh
Cc1ccc(C)c(N2C(=O)c3ccc(C(=O)OCC(=O)c4c(N)n(C)c(=O)n(C)c4=O)cc3C2=O)c1,0.4,-1.4,x,-5,0.8,0,-7,u
Cc1ccc(-n2c(=O)[nH]c3cc(C(=O)NC4CCN(Cc5ccccc5)CC4)ccc3c2=O)cc1,0.2,1.7,-6%,-14,x,-4,2,0.6
COc1ccc(S(=O)(=O)N2CCOCC2)cc1NC(=O)COc1ccc2c(C)cc(=O)oc2c1,-2.2,x,x,x,5.1,x,13,-0.4
Cc1ccc(S(=O)(=O)N(C)CC(=O)Nc2ccncc2)cc1,-0.3,0.7,-3%,4,x,-7,1,1.1
O=S(=O)(NCC(c1ccc2c(c1)OCO2)N1CCOCC1)c1ccc(Br)cc1 (stereo not given),6.7,-4.7,1%,7,0.5,-6,0,0.1
CC1=C(C#N)C(c2ccccc2)C2=C(N1)c1ccccc1C2=O (stereo not given),0.0,-1.0,-4%,-1,11,-3,7,-0.5
S=C(Nc1ccc(Cl)cc1Cl)N1CCCC1,4.6,2.2,0%,-27,-1.5,14,-9,1.2
CCc1ccc(Nc2n[n+](-c3ccccc3)c(-c3cc(OC)c(OC)cc3Br)s2)cc1,1.0,1.4,x,18,6.4,-30,-5,0.4
O=C(CCN1C(=O)C2CC=CCC2C1=O)N1CCN(c2ccccn2)CC1 (stereo not given),-2.2,-3.4,-7%,4,x,2,2,-0.3
COc1ccc(CN2CCN(CCCc3ccccc3)C(CCO)C2)c(O)c1 (stereo not given),-5.5,2.6,x,-1,2.4,-7,-1,0.8
Cc1nc(-c2ccc(Cl)cc2)sc1C1(C)CC(c2cccc([N+](=O)[O-])c2)=NO1 (stereo not given),0.6,3.4,-1%,10,-0.6,0,-10,-0.7
COC(C(=O)Nc1ccnn1C1CCN(C(=O)c2ccc(C=O)cc2)CC1)c1ccccc1 (stereo not given),1.2,-0.6,8%,-31,-2.4,20,3,-0.4
COc1ccc(CCN2CC(C(=O)NCC(=O)Nc3ccc(F)c(F)c3)CC2=O)cc1OC (stereo not given),2.6,3.2,14%,-4,-14,4,-4,0.1
COc1cccc(OCc2nnc(SCC(=O)N3c4ccccc4Sc4ccc(Cl)cc43)o2)c1,-15,0.5,9%,28,1.8,-4,0,-3.3
CC(=O)CCc1ccc(OCCCCN2CCC(Cc3ccccc3)CC2)cc1,-3.2,-0.6,-1%,46,3.9,-7,1,-0.1
COc1ccc(NC(=S)N(CCC(C)C)C2CCN(C(C)C)CC2)cc1,11,-5.6,3%,3,-5.2,-8,-2,-0.5
COc1ccc(NC(=O)c2cccc(N3C(=O)C4C5C=CC(C5)C4C3=O)c2)cc1Cl (stereo not given),4.2,4.5,x,-9,-1.3,13,26,-2.1
CCC(C)NC(=O)CSc1nnc(-c2ccc(C(C)(C)C)cc2)n1C (stereo not given),-3.9,6.5,-4%,0,x,10,3,0.0

# Hits appear at their usual frequency (roughly 4.3% active in at least one column).
